ALR H2O2 inh = inhibitors of human ALR sulfhydryl oxidase, primary screen, biochemical, H2O2 detection, HRP-luminol luminescence, single point; 3.8% of 290,000 active; purified ALR, DTT oxidation; inhibition, % (no concentration beside the values);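 active = mean and each replicate at 75% or more; inconclusive = only one of the two met; inactive = neither met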;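 note: stock transfer was 7.5 nL into about 7.5 µL; 0% = neutral wells and 100% = wells with inactivated enzyme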
T cruzi inh = inhibitors of intracellular T. cruzi growth, primary screen, luminescence, NIH3T3 host cells. inhibition, % (test concentration not listed). AID 1885, 2009. T. cruzi beta-gal in NIH3T3, 90 h. 1.4% of 300,000 active;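 active = mean inhibition across valid replicates above about 55%, limit read from the data; inconclusive = mean below that limit but half or more replicates reach it; inactive = mean below it, under half of replicates reach it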;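 note: signal also drops with host cell toxicity which is not excluded here; 0% = plate median of DMSO wells and 100% = zero luminescence signal; higher percent means less beta-gal luminescence so fewer parasites; stock transfer was 50 nL into about 50 µL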
Beta2AR agonist = beta2AR agonists driving receptor internalization, primary screen, cell-based, FAP fluorogen, flow cytometry | Am2.2-beta2AR cells; reference of the scale not given here | response, % (no concentration beside the values) | 0.43% of 340,000 active | AID 504454, 2011;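 active = response above a set limit, near 3 SD of response in nonfluorescent compounds, cut at about 42% in these data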;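 note: stock transfer was 100 nL into about 11 µL; a reference agonist was the positive control; negative values mostly stem from fluorescent compounds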
rRNA inh HTS = reduced GFP signal of wild-type E. coli, primary screen, bacterial rRNA inhibitor project, GFP/RFP fluorescence, OD600, single point; E. coli WT GFP vs humanized-ribosome RFP mutants, 24 h; stronger effect = lower value; DMSO median 0, no signal -100; GFP signal change (wild-type ribosome), % (no concentration beside the values); 1.6% of 350,000 active;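 active = significant combined selectivity score with lowered wild-type GFP, culture density cut under 30%, mutant RFP and density less affected; inactive = any of these conditions unmet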; note: one replicate is shown; some compounds called inactive have numbers as strong as hits
Beta apoptosis = inhibitors of cytokine-induced beta cell apoptosis, primary screen, luminescence | INS-1E cytokine-induced death, ATP luminescence, 48 h; percent of positive-control rescue, neutral wells zero | protection from apoptosis, % (concentration not given with the values) | 0.8% of 300,000 active;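 active = all replicates at 75% or more, or half of them and the mean; inconclusive = half reach 75% but not the mean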;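 note: 0% = cytokine-treated negative control wells and 100% = positive control rescue; higher means more ATP so stronger rescue from cytokine killing; wells of about 40 µL received 100 nL stock; the first replicate is given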
LANA-H2A inh = blockers of LANA interaction with H2A/H2B – biochemical, FP readout, HTS, primary screen; Protein LANA1 (Human herpesvirus 8 type P (isolate GK18)), Q9QR71; cell-free LANA-H2A/H2B peptide, fluorescence polarization; inhibition, % (concentration not given with the values); 0.6% of 320,000 active; AID 2629, 2010; in the data active = inhibition mostly above about 10%, no sharp cut-off; inactive = mostly below about 6.7%;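 note: stock transfer was 7.5 nL into about 10 µL; 0% = median of vehicle wells and 100% = median of positive control wells; one replicate is shown; the record names a cut of 25% in any replicate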
Target sequence (Q9QR71 whole entry, looked up): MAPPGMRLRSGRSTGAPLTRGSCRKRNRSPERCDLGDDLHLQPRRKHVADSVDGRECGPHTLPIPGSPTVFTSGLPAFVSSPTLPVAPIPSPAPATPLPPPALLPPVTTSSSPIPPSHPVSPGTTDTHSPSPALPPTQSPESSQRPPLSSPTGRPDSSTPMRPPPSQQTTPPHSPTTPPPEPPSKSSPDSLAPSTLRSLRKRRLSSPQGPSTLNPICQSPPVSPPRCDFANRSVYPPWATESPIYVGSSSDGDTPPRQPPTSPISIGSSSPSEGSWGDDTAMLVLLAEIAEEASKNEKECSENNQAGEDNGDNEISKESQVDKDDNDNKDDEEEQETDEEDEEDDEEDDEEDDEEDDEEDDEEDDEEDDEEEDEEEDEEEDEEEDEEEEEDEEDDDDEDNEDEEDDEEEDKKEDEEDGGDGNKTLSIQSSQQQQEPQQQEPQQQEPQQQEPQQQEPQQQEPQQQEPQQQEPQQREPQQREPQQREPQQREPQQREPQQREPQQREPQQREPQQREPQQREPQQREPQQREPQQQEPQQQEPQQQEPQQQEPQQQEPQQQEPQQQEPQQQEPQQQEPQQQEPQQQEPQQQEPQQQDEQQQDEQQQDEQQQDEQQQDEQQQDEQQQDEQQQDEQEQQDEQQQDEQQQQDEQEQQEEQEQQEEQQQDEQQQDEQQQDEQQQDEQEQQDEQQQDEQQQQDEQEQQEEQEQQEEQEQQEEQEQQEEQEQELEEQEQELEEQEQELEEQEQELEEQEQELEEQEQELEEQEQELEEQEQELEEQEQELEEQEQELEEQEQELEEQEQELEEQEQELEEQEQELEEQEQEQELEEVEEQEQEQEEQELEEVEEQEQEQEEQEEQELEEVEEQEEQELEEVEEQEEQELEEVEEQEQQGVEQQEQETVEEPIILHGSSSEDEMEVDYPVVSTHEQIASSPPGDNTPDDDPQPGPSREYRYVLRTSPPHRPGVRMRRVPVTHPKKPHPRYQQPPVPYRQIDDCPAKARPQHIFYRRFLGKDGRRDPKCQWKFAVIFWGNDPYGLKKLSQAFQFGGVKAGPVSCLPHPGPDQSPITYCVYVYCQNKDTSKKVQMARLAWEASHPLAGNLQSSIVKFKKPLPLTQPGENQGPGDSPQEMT
Calb FLC = C. albicans growth inhibition with fluconazole, primary screen, CaCi-2 strain, Alamar Blue fluorescence; AID 1979, 2009; growth inhibition, % (no concentration beside the values); C. albicans CaCi-2 (fluconazole-resistant clinical isolate) + fluconazole, 48 h; 0.57% of 300,000 active;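 active = most replicates above 75%; inconclusive = exactly half above 75%; inactive = most below 75%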;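 note: all wells also contain fluconazole at 8 µg/ml as a sub-toxic cotreatment; 0% = median of DMSO wells and 100% = median of geldanamycin control wells; wells of about 8 µL received 7.5 nL stock; the first replicate is given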
A1 inh = caspase 3/7 activation in MEF A1-2A-BIM cells, primary screen, A1 inhibitor project, cell-based, luminescence, HTS | 0.066% of 330,000 active | Caspase-Glo 3/7 luminescence, 3 h; percent of clofoctol response, vehicle zero | caspase activation, % (no concentration beside the values);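 active = over half of replicate activation scores above 10%, or exactly half above 10 with the replicate mean above 10; inconclusive = replicate mean below 10 yet half the replicates above 10; inactive = over half of replicates below 10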;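 note: wells of about 30 µL received 50 nL stock; many hits fall short of the cut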
rRNA inh HTS OD600 = second read-out of rRNA inh HTS, no call of its own (marks repeat the call); OD600 change, %; measured here: OD600 growth;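 optical density of the mix in the first replicate; 0 = DMSO median and -100 = no signal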
rRNA inh HTS RFP = further read-out of rRNA inh HTS, marked with its call; RFP signal change, %; measured here: RFP humanized mutant strains;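 first replicate; 0 = DMSO median and -100 = no signal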
The depositor's hits bear a star; ? = inconclusive; . = not tested or not shown.

SMILES	ALR H2O2 inh	T cruzi inh	Beta2AR agonist	rRNA inh HTS	rRNA inh HTS OD600	rRNA inh HTS RFP	Beta apoptosis	LANA-H2A inh	Calb FLC	A1 inh
O=C(COC(=O)c1ccc(Br)o1)Nc1ncc(Cl)cc1Cl	0.0	-5.0	-7.3	17.6	11.5	1.8	-9.1	2.0	-3.1	-0.3
CCCc1nnc(NC(=O)COC(=O)c2cc(C)nc3ccccc23)s1	-6.4	7.6	-9.6	-0.4	-2.3	-8.4	-7.4	-1.3	12.3	0.5
COc1cccc(C(=O)NNC(=O)Cc2ccc(Cl)cc2)c1	-2.4	7.0	-1.8	-20.6*	-4.4*	6.2*	-3.9	-2.2	?	0.8
Nc1nnc(/C=C/c2ccccc2Cl)s1	-4.4	3.4	8.2	-6.5	-5.9	-0.3	-6.6	4.4	5.8	-3.1
Cc1ccc2c(N)c(C)ccc2c1	2.8	12.9	-0.8	.	.	.	-0.4	1.1	2.2	0.1
CCc1cccc(C)c1NC(=O)c1ccc2nc(N3CCOCC3)sc2c1	3.0	2.7	4.2	1.5	3.4	5.1	0.2	3.9	-5.6	0.2
CCOC(=O)C1CCCN(CCC(=O)Nc2ccc3c(c2)CCC3)C1 (configuration not stated)	-2.9	8.0	10.4	8.4	1.6	-6.1	-0.8	0.9	?	0.2
CN(C(=O)COC(=O)c1cc([N+](=O)[O-])ccc1Cl)c1ccccc1	.	-6.7	1.5	14.8	7.1	7.2	-3.4	1.6	13.7	-0.6
COc1ccc(/C=C(\C#N)C(=O)NC2CCS(=O)(=O)C2)cc1OC (configuration not stated)	.	-23.8	-1.8	.	.	.	-2.6	.	-8.7	2.1
O=C(CSc1ncccc1-c1nc2ccccc2[nH]1)N1CCCCC1	-10.1	.	-10.7	1.2	-2.2	7.3	-4.5	-0.8	7.9	-0.4
O=C(Cn1nnc(-c2ccccc2F)n1)Nc1ccc2c(c1)OCCO2	-0.8	-9.7	1.4	4.8	4.8	-2.1	-12.3	0.7	-4.7	0.7
Cc1cc(C)n2nc(N)c(N=Nc3ccc(Cl)cc3)c2n1	3.5	15.1	-25.1	.	.	.	3.8	0.1	25.7	-1.1
CCOc1ccc(N(CC(=O)Nc2cccc(N(C)S(C)(=O)=O)c2)S(=O)(=O)c2ccccc2)cc1	-3.2	11.7	9.0	.	.	.	7.7	24.8*	-13.0	0.3
O=C1NC2(CCc3ccccc3C2)C(=O)N1CCOc1cccc(Cl)c1 (configuration not stated)	.	-4.3	-5.6	.	.	.	-5.9	.	4.8	-0.2
O=C(O)CSCC(=O)Nc1cccc(C(F)(F)F)c1	36.6	2.3	-4.4	8.9	0.4	-9.8	-4.1	-2.2	6.3	1.0
O=C1CC(SCc2nc3ccccc3[nH]2)C(=O)N1c1ccc(F)c(Cl)c1 (configuration not stated)	66.8	-36.4	-2.8	.	.	.	8.5	1.3	?	-0.6
CC1CC1C(=O)OCC(=O)Nc1ccc2[nH]c(=O)[nH]c2c1 (configuration not stated)	-4.8	-13.7	1.7	20.6	16.3	2.3	-4.5	-4.9	-0.5	0.1
NC(=O)c1ccsc1NC(=O)c1ccc2c(c1)CCCC2	.	12.5	2.3	-9.8	-4.1	18.3	24.7	-2.8	12.7	-8.3
CCOC(=O)c1ccc(NC(=O)N(CC)CC)cc1	-7.6	0.7	-0.8	.	.	.	9.5	3.5	-15.7	-0.4
Cc1ccc(-n2c(SCC3CNC(=O)O3)nnc2-c2ccccc2)cc1C (configuration not stated)	-0.9	2.6	.	.	.	.	0.8	1.4	-0.1	0.6
COC(=O)c1[nH]nc(-c2ccccc2)c1-c1ccccc1	2.7	9.3	-2.4	-4.7	5.5	-3.8	1.2	1.1	-3.7	-0.2
CC(=O)N1CCN(C(=O)CCc2cc(C(C)(C)C)c(O)c(C(C)(C)C)c2)CC1	3.8	2.5	-0.6	2.0	4.9	-0.2	61.4	1.3	?	-0.8
Cc1cc(NC(=O)CSc2nnc(NC(=O)C3CC(=O)N(c4ccccc4C)C3)s2)no1 (configuration not stated)	.	-10.9	1.3	9.3	17.6	8.5	5.7	.	-10.1	-0.1
CCCn1c(C(CO)Nc2nc(-c3cccc(Br)c3)cs2)nc2ccccc21 (configuration not stated)	.	10.7	-1.7	1.2	9.9	2.6	-6.8	-2.7	2.7	0.2
Cc1ccc2oc(=O)c3cc(C(=O)NCCCN4CCCCCC4)sc3c2c1	-13.2	19.1	17.2	-4.7	0.1	14.4	-4.9	2.4	17.2	-0.4
Next section
SMILES	ALR H2O2 inh	T cruzi inh	Beta2AR agonist	rRNA inh HTS	rRNA inh HTS OD600	rRNA inh HTS RFP	Beta apoptosis	LANA-H2A inh	Calb FLC	A1 inh
CCn1c(C)c(P(c2ccccc2)c2ccccc2)[n+]2ccccc12	-6.6	-13.8	11.0	16.8	17.8	0.0	10.5	10.3	-25.2	-0.5
COc1ccc(NC(=O)CN(C)C(=O)c2cc(-c3ccc(C)o3)nc3ccccc23)cc1	-3.8	6.3	10.2	-4.4	-4.1	1.8	-1.5	-5.9	-1.8	-0.1
CCNC(=O)COc1ccc(-c2ccccc2)cc1	2.0	0.3	-1.1	.	.	.	-0.7	-3.6	18.2	-1.8
Cc1ccc(S(=O)(=O)NC(CC(=O)N2CCOCC2)c2ccco2)cc1 (configuration not stated)	.	-2.3	2.8	.	.	.	1.8	2.9	-1.6	0.3
Cc1ccc(S(=O)(=O)N2CCN(CC(=O)N/N=C/c3cc([N+](=O)[O-])ccc3Cl)CC2)cc1	0.8	-2.3	-6.3	.	.	.	-5.0	5.0	?	0.2
CCOC(=O)C1(CC2CC2)CCN(C(=O)c2cc(C)nc3ccc(CC)cc23)CC1	-7.8	9.3	1.8	-30.7	-48.2	0.3	.	-0.1	-8.2	0.5
Cc1c(Cc2ccccc2)c(=O)oc2cc(OCC(=O)NCc3ccccn3)ccc12	-2.0	-14.3	-1.9	4.8	7.8	0.2	-2.1	-1.8	15.3	-0.4
Cc1nc(COC(=O)c2ccc(S(=O)(=O)N3CCCC3)cc2)cs1	-0.8	3.4	1.1	.	.	.	3.0	-1.1	0.3	0.1
O=C(Cn1cnc2ccccc2c1=O)Nc1nnc(C2CC2)s1	3.7	-10.3	0.2	.	.	.	3.4	-3.9	16.1	-0.4
COc1ccc(-n2ncc3c(N4CCN(Cc5ccccc5)CC4)ncnc32)cc1	2.4	15.0	9.5	-28.8	-35.6	3.8	4.9	-0.2	56.2	-0.8
Cc1cccc(C(=O)OC(C)C(=O)N2CCc3ccccc3C2)c1C (configuration not stated)	0.0	.	1.8	-18.7	-50.5	-4.4	71.9	-2.2	.	-0.6
COc1ccc(CCNCc2ccc(OCc3ccccc3)cc2)cc1	-5.0	53.8	16.7	1.1	-30.8	11.9	1.7	0.6	-3.0	-1.4
N#Cc1c(-c2ccccc2)c(-c2ccccc2)n[nH]c1=O	.	-7.6	6.5	-3.0	-15.6	-0.7	.	7.2	-6.0	0.4
COc1ccc(NC(=O)C2CCCN2S(=O)(=O)c2ccc3c(c2)CCC(=O)N3)cc1Cl (configuration not stated)	-22.4	.	10.1	-2.2	1.2	1.0	5.0	-3.3	.	-0.5
CC(C)OC(=O)CSc1nnc(Cc2ccccc2)n1Cc1ccco1	7.9	-8.2	2.1	.	.	.	-9.9	7.2	-6.3	-0.4
COc1ccccc1C(O)P(=O)(OCC(C)C)c1ccc(N(C)C)cc1 (configuration not stated)	3.4	-0.9	4.1	-0.7	-10.2	0.8	-7.6	-2.0	44.8	1.4
Cc1ccc(C23CC4CC(CC(C(=O)NCC(=O)O)(C4)C2)C3)cc1	-3.9	-4.7	-14.3	-25.1	-9.5	-11.7	.	-2.2	-1.6	-0.4
COCCn1c(SCC(=O)Nc2ccccc2OC)nc2ccccc21	59.3	-1.3	3.8	-23.7*	-14.3*	3.3*	-7.2	4.7	3.0	-0.2
O=C(OCC(=O)N1CCN(C(=O)c2ccco2)CC1)c1cc(S(=O)(=O)Nc2ccc(Cl)cc2)ccc1O	-9.0	-7.3	-5.8	-10.9	-6.4	5.1	-4.2	2.8	-13.7	0.8
CCOC(=O)c1oc2ccc(S(=O)(=O)n3nc(-c4ccc(C)cc4)cc3N)cc2c1C	-16.6	29.1	0.2	7.6	4.7	7.4	-1.1	0.1	4.2	0.2
CC(C)C(NC(=O)c1ccccc1)C(=O)OCC(=O)N1CCN(c2ccccc2)CC1 (configuration not stated)	.	.	-6.9	1.8	-5.7	2.8	-1.5	2.9	.	-0.7
COC(=O)c1ccccc1NC(=O)CSc1nnc(-c2cccnc2)n1C	-34.1	3.1	-3.4	.	.	.	-2.6	0.4	-1.1	-1.0
CC1CCC(C(=O)c2c(O)c3ccccc3oc2=O)CC1 (configuration not stated)	37.6	-0.7	0.6	.	.	.	16.2	0.4	108.4*	-0.1
CCOC(=O)C1(Cc2ccccc2)CCCN(C2CCCC2)C1 (configuration not stated)	.	.	1.1	17.4	1.8	-8.3	-6.5	2.6	-18.1	1.1
CNC(=O)CSc1nc(SC)ns1	6.5	-5.6	3.6	5.2	-4.7	0.1	-5.9	2.3	-4.7	0.2
The results go on:
SMILES	ALR H2O2 inh	T cruzi inh	Beta2AR agonist	rRNA inh HTS	rRNA inh HTS OD600	rRNA inh HTS RFP	Beta apoptosis	LANA-H2A inh	Calb FLC	A1 inh
CCOc1ccc(NC(=O)N2CCC(NC(=O)C(Cc3cccc(F)c3)NC(C)=O)CC2)cc1 (configuration not stated)	-4.1	7.7	2.7	3.6	-0.7	-2.1	-5.3	-2.4	3.8	0.4
COc1c(C)c2c(c(O)c1C/C=C(\C)CCC(=O)O)C(=O)OC2	11.3	62.2*	7.6	-6.3	1.2	-5.1	57.7	-6.8	3.2	-0.2
CCOc1ccc(N(Cc2cc3cc(OC)ccc3[nH]c2=O)S(C)(=O)=O)cc1	-2.9	-3.8	-5.2	.	.	.	-3.7	1.2	?	1.2
Cn1c(N)c(Sc2ccccc2[N+](=O)[O-])c(=O)n(C)c1=O	-2.8	-4.6	10.5	8.0	5.0	-2.7	-5.2	-0.1	-2.4	1.0
Cc1ccc(OCCCC(=O)Nc2nccs2)cc1	-7.8	-8.1	-5.3	.	.	.	.	0.6	4.2	1.0
O=C(O)C/C=C(\NC(=O)OCc1ccccc1)C(=O)OCc1ccccc1	12.8	-6.0	3.1	-16.1	-21.6	-0.2	-3.7	-2.2	-1.0	0.2

Entries listed so far marked active in LANA-H2A inh.
SMILES,ALR H2O2 inh,Beta2AR agonist,rRNA inh HTS,rRNA inh HTS OD600,rRNA inh HTS RFP,LANA-H2A inh,A1 inh
CCOc1ccc(N(CC(=O)Nc2cccc(N(C)S(C)(=O)=O)c2)S(=O)(=O)c2ccccc2)cc1,-3.2,9.0,.,.,.,24.8*,0.3

The list is partial. The share of hits here may be higher or lower than overall.
